From PubChem
gsp agonist – qHTS for Agonist of gsp, the Etiologic Mutation Responsible for Fibrous Dysplasia/McCune-Albright Syndrome: qHTS. gsp mutant cells, cAMP HTRF, 30 min; control for the full effect not named in the record. Potency, µM (highest dose often 76.9 µM), for the others: top-dose activation (cAMP increase), most hits filed as activators. actives 0.13% (n = 340,000). AID 624287, 2012; active = well fitted activation curve with a large enough effect; inconclusive = small, poorly fitted or top-dose-only effect, or another doubt; inactive = no such curve, though single readings can be large or run the other way; cell line not stated here;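 note: phosphodiesterase inhibitor Ro 20-1724 added with compounds to block cAMP breakdown; potency is the fitted concentration of half-maximal effect; nearly all actives have a fitted effect of over 60% in size; about a fifth of the inactives were tested at one dose only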
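Cells stably selected in G418 were plated at 2000/well, grown 16-24 hr, then given compounds in DMSO with the PDE inhibitor […] (300 uM solution added) for 30 min at 37C; cAMP was read by HTRF.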
ClpP mod – qHTS Assay for Activators of ClpP. Potency, µM (highest dose often 57.5 µM), without a hit: at the highest dose activity change, negative = active. purified B. subtilis ClpP, FRET peptide cleavage, 20 min. ATP-dependent Clp protease proteolytic subunit (Bacillus subtilis (strain 168)), P80244. actives 1.9% (n = 340,000); active = well fitted falling curve with a large enough effect; inconclusive = small, poorly fitted or top-dose-only effect; inactive = no such curve, though single readings can be large or run the other way; note: potency is the fitted concentration of half-maximal effect; the source files actives as falling curves though it sought activators and does not explain the sign; nearly all actives have a fitted effect of over 65% in size; many hits overshoot -100%
Target sequence (P80244 whole entry, looked up): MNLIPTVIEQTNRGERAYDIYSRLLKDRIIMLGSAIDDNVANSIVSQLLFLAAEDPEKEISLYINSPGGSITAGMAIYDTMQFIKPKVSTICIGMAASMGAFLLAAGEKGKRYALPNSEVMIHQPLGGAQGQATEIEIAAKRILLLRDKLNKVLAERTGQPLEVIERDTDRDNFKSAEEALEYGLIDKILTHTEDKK
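FRET quenching reversal measured ClpP activation: 10 microg/mL B. subtilis ClpP at pH 8 with the FRET-FV decapeptide, read at 430 nm after 320 nm excitation. The 20-min minus 0-min signal was scaled between DMSO/no-enzyme wells and ADEP (5.8 microM final).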
TRPV1 PAM – HTS Assay for Compounds that Act as Potentiators of the Vanilloid Receptor 1 | Transient receptor potential cation channel subfamily V member 1 (Homo sapiens), Q8NER1 | actives 0.02% (n = 320,000) | potentiation, % at 8.33 µM | TRPV1-expressing cells, Fluo-8 calcium influx, capsaicin EC20 potentiation; host cell line not named in the record; control for the full effect not named in the record; active means potentiation above 80%; inconclusive means 30% to 80%; inactive means below 30%; note: 0% is about no effect
Target sequence (Q8NER1 whole entry, looked up): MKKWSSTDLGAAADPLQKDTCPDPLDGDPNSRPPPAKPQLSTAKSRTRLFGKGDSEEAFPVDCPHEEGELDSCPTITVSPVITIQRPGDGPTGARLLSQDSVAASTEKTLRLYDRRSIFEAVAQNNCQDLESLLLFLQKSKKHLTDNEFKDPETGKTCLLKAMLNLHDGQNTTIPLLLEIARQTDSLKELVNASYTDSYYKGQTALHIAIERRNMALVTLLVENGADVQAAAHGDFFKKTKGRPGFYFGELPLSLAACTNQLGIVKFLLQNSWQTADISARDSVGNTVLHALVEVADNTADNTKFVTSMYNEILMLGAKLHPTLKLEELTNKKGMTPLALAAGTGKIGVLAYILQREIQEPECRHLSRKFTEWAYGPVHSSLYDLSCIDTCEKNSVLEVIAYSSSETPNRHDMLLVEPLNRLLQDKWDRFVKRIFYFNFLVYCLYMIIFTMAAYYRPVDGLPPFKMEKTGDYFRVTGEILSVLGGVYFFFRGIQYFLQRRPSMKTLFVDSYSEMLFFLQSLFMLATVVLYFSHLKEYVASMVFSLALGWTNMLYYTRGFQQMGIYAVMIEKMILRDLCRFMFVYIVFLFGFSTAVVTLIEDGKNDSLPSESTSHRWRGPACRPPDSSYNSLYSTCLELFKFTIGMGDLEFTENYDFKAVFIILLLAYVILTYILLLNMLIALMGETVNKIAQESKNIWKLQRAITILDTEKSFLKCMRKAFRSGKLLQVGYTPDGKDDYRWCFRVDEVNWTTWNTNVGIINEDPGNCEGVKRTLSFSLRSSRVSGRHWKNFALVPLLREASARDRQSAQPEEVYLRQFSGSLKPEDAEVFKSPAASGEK
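TRPV1-expressing cells were cultured overnight at 35.5C and loaded with Fluo-8 calcium dye for 40 to 90 min at room temperature. After a 10 s baseline, compound was added and calcium influx was read kinetically for 3 min (ex 480/em 520 nm).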
Menin MLL FP FL – qHTS Assay for Inhibitors Targeting the Menin-MLL Interaction in MLL Related Leukemias: Competition With Fluorescein Labeled MLL-derived Peptide | FP activity change, % at 61.4 µM | Fluorescence polarization, fluorescein-MLL peptide displacement from menin | 290,000 tested, under 10 active | AID 1766, 2009; inconclusive = falling polarisation curve, or a change in total fluorescence; inactive = total fluorescence flat and polarisation flat or rising; no compound was filed as active; the % refers to the polarisation; negative = inhibition;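 note: % of control where 0% means no effect; inhibitors lower the polarisation; unlabelled MLL peptide was the positive control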
D2 PAM – Beta-Arrestin HTS for Positive Allosteric Modulators of the Human D2 Dopamine Receptor: Potentiators. AID 624464, 2012. potentiation, % (no concentration beside the values). D(2) dopamine receptor (Homo sapiens), P14416. actives 0.23% (n = 360,000). DiscoveRx D2 beta-arrestin cells, luminescence, 90 min; 100% = 57 uM dopamine signal; active = potentiation of 50% or more; inconclusive = 30% to 50%; inactive = 30% or less;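 note: compound concentration not given in the record; tested on top of an EC20 dose of dopamine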
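D2 cells co-treated with compound plus 50 nM dopamine (EC20) for 90 min at 37 deg C to detect potentiation. Beta-arrestin recruitment was read as enzyme-fragment luminescence after 1 h at ambient temperature. Full response was set by 57 uM dopamine.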
Sfp PPTase inh – qHTS Assay for Inhibitors of Bacillus subtilis Sfp phosphopantetheinyl transferase (PPTase). 4'-phosphopantetheinyl transferase ffp (Bacillus subtilis), Q9F4F7. Biochemical Sfp PPTase activity, qHTS. Potency, µM, for the others: max response, negative = inhibition, actives largely listed as inhibitors. actives 3.5% (n = 310,000). AID 1490, 2009; active = well fitted inhibition curve with a large enough effect; inconclusive = small, poorly fitted or top-dose-only effect, or another doubt; inactive = no such curve, though single readings can be large or run the other way;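 note: the enzyme is Sfp with the accession as filed and its product quenches rhodamine fluorescence; potency is the fitted concentration of half-maximal effect; 0% = enzyme reaction without inhibitor and -100% = no enzyme wells; top concentration of the series not given in the record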
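With Hepes-Na pH 7.6 buffer containing 10 mM MgCl2, Sfp (15 nM) modified BHQ-2-YbbR (12.5 uM) using rhodamine-CoA (5 uM). Two reads 30 minutes apart at 525/598 nm yielded each well's rate.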
gsp antagonist – qHTS for Antagonists of gsp, the Etiologic Mutation Responsible for Fibrous Dysplasia/McCune-Albright Syndrome: qHTS. gsp-mutant cells, cAMP HTRF, 30 min; control for the full effect not named in the record. Potency, µM (titrated, usually from 76.9 µM), for the others: at the highest dose activity change, negative = inhibition, most hits filed as inhibitors. actives 0.4% (n = 340,000); active = falling curve of any shape with a large fitted effect; inconclusive = falling curve, mostly with a smaller effect; inactive = flat or rising curve; cell line not stated here;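 note: intracellular cAMP measured with PDE inhibitor Ro 20-1724 present during compound exposure; potency is the fitted concentration of half-maximal effect; % is set by controls: 0 for no effect and ±100 for the full control effect; nearly all actives have a fitted effect of over 65% in size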
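Cells, 2000/well, grown 16–24 h in DMEM 10% FBS with 0.5 mg/ml G418, then compounds plus […] (300 uM addition stock), 30 min at 37C. cAMP read by HTRF (cAMP-d2 and anti-cAMP antibody-K in lysis buffer) after 30 min RT.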
* = called active by the depositor; ? = inconclusive; · = not tested or not shown; & = joins results of further samples; [ ] = dose if it differs, or a comment.

molecule | gsp agonist | ClpP mod | TRPV1 PAM | Menin MLL FP FL | D2 PAM | Sfp PPTase inh | gsp antagonist
Cn1c(=S)[nH]c2cccnc21 | 0% | 1.2% | -24 | -0.3 | -6 | 12% | 11%
O=c1[nH]c2ccc(Cl)cc2c(O)c1-c1ccccc1 | ? | -22% | 13 | -9.1 | -21 | 16% | -5%
CCCCCCNC(=O)c1c(O)c2ccccc2[nH]c1=O | 17% | -0.5% | 20 | -1.8 | -1 | 11% | 7%
CNC(=O)CSc1nnc(-c2cccnc2)n1-c1ccc(C)cc1 | ? | · | -8 | 3.4 | -3 | 27% | 0%
Cc1cc(NC(=O)C(C)Sc2nc(-c3ccccc3)cc(=O)[nH]2)no1 (stereo unspecified) | -24%[15.4 µM] | · | 25 | -14 | 2 | -4% | -14%
O=c1cc(CSc2nc3cc(Cl)ccc3o2)nc2sccn12 | ? | -1.5% | -20 | 6.2 | -3 | -5% | 1%
CCOC(=O)c1sc(C)c(C(=O)NC2CCCCC2)c1N | 6% | -24% | 3 | 1.0 | 12 | 10% | 3%
O=C(NCCn1ccc2ccccc21)C1CCCCC1 | -11% | -2.5% | -16 | -0.4 | 0 | 13% | 5%
CC(C)S(=O)(=O)c1csc(NC(=O)Nc2ccc(Cl)cc2)c1 | -13% | · | 13 | 1.1 | -2 | -21% | 2%
CCOC(=O)Cc1csc(NC(=S)NC(=O)c2ccccc2C)n1 | -22% | -0.8% | ? | 2.0 | -13 | -13% | -9%
COC(=O)C1(C)NC(c2ccc(Cl)cc2)C2C(=O)N(c3ccccc3)C(=O)C21 (stereo unspecified) | -3% | -2.6% | 4 | -1.3 | -4 | 21% | -1%
O=C(Cn1ncc(Cl)c(Cl)c1=O)c1ccc(Cl)cc1 | 16% | 0.2% | 11 | -0.8 | -18 | 1% | -4%
CC12CS(=O)(=O)CC1SC(=S)N2c1ccccn1 (stereo unspecified) | -19% | 1.2% | -14 | 2.2 | 7 | -2% | 12%
COc1ccc(-c2nc3ccccc3c(=O)n2-c2c(C)n(C)n(-c3ccccc3)c2=O)cc1 | 24%[15.4 µM] | · | 2 | 2.4 | -11 | 1% | -5%
O=C(Nc1ccccc1)c1cc([N+](=O)[O-])ccc1Cl | · | -2.9% | -11 | ? | -4 | -16%&13%&5% | -10%
C=CCC(c1ccccc1)N(C(C)=O)c1ccco1 (stereo unspecified) | ? | · | 7 | 1.5 | 1 | 8% | 6%
O=C(CSc1nccn(-c2ccc(F)c(Cl)c2)c1=O)NC1CCCC1 | 25% | ? | -1 | · | -12 | · | 6%
Cc1ccc(NC(=O)C(Cc2ccccc2)n2cccc2)cc1 (stereo unspecified) | 4%[15.4 µM] | -1.6% | 19 | 1.1 | -4 | 3% | -8%
Cc1ccccc1-n1c(SCc2c(C)noc2C)nnc1-c1ccncc1 | ? | -9.8% | -16 | 12 | -6 | -1% | -10%
CCC(=O)c1ccc(OCC(=O)N2CCN(c3ccccn3)CC2)cc1 | -54%[inhibitor] | ? | 4 | · | 2 | 13% | 2%
Cc1cc(/C=N/n2cnnc2)c(C)n1-c1cc(Cl)ccc1Cl | 7% | -0.1% | -19 | 2.4 | 6 | ? | 13%
COc1ccc(N(CC(=O)NN=C2CCN(C)CC2)S(=O)(=O)c2ccccc2)c(OC)c1 | -4% | · | 29 | 2.9 | -1 | 9% | 0%
CSc1ccc(CN(C)C(=O)c2cccc(S(=O)(=O)NCc3ccccc3)c2)cc1 | 13% | -1.6% | 6 | -4.9 | 21 | -3% | ?
O=C1C=C(c2cccc3c2oc2ccccc23)C[C@@H](c2ccc(F)cc2)C1 | · | -0.6% | 3 | · | -9 | · | -5%
COc1ccc(CN2C(=O)/C(=C/c3ccncc3)SC2=S)cc1 | -26% | -0.2% | 4 | 6.6 | 19 | ? | -3%
Cc1cc(C)n(CC(=O)N2N=C(C(F)F)CC2(O)C(F)F)n1 (stereo unspecified) | -38%[inhibitor] | -0.6% | -1 | 1.9 | -19 | 20% | 6%
CNC(=O)c1ncoc1-c1ccc(Cl)cc1 | -3%[15.4 µM] | · | 7 | 4.8 | -6 | 14% | -1%
O=C(O)CC1C(=O)NCCN1Cc1ccc(F)c(F)c1 (stereo unspecified) | -33%[inhibitor] | -1.6% | 0 | 1.0 | -5 | -4% | 11%
O=C(Nc1ccc(S(=O)(=O)Nc2ccccc2)cc1)C1CC1 | 6% | 0.0% | 0 | · | -5 | 6% | 8%
N=C1C(=O)OCC1c1ccccc1NC(=O)Nc1ccccc1 (stereo unspecified) | 19% | -2.4% | 3 | -2.0 | -8 | 11% | 4%

Among those listed so far, 2 have a thiophene ring, fused or not.
molecule | gsp agonist | ClpP mod | TRPV1 PAM | Menin MLL FP FL | D2 PAM | Sfp PPTase inh | gsp antagonist
CCOC(=O)c1sc(C)c(C(=O)NC2CCCCC2)c1N | 6% | -24% | 3 | 1.0 | 12 | 10% | 3%
CC(C)S(=O)(=O)c1csc(NC(=O)Nc2ccc(Cl)cc2)c1 | -13% | · | 13 | 1.1 | -2 | -21% | 2%

Next entries.
molecule | gsp agonist | ClpP mod | TRPV1 PAM | Menin MLL FP FL | D2 PAM | Sfp PPTase inh | gsp antagonist
CN1CCc2c(sc3c2C(=O)NC(c2ccc4c(c2)OCO4)N3)C1 (stereo unspecified) | 25% | -15% | -3 | ? | -26 | ? | -6%
CCN(Cc1ccccc1)S(=O)(=O)c1ccc(C(=O)Nc2nnc(C)o2)cc1 | 1% | -0.5% | 8 | -1.6 | -9 | 21% | -6%
O=C(NC(=S)Nc1ccc(Cl)c(C(=O)O)c1)c1cncc(Br)c1 | 10% | -1.2% | 9 | 2.3 | -17 | -14% | 10%
COc1ccc(CNC(=O)CCNS(=O)(=O)c2ccc(Cl)cc2)cc1 | -12% | · | 12 | 1.4 | -3 | 1% | 6%
CN(Cc1ccccc1)C(=O)COC(=O)c1ccc(-n2cnnn2)cc1 | -9% | ? | -4 | · | -4 | · | -3%
C/C=C/c1ccc(OCCCNC)c(OC)c1 | 14% | -5.7% | 12 | 0.9 | -24 | -21% | 16%
COc1cccc(/C=N/NC(=O)c2cc(-c3cccn3C)n[nH]2)c1O | -33%[inhibitor] | -3.1% | 22 | 8.4 | -24 | 6% | -6%
COc1cc(/C=N/NC(=O)Nc2ccccc2)ccc1OCCOc1ccccc1C | 10% | -4.1% | -17 | 1.4 | 4 | -1% | 10%
CCOC(=O)Cc1csc(/N=C/c2c(O)n(-c3ccc(C)cc3C)c(=O)c3ccccc23)n1 | 12%[15.4 µM] | ? | 6 | ? | -8 | -7% | -15%
Cc1onc(-c2ccccc2)c1C(=O)NC(=S)NNC(=O)c1ccco1 | -5% | · | -5 | -0.4 | -9 | 11% | -6%
CC(Sc1nnc(NC(=O)c2cc3ccccc3oc2=O)s1)c1ccccc1 (stereo unspecified) | -38%[inhibitor] | 0.7% | 21 | -3.1 | -7 | -4% | 5%
CCc1ccccc1OCCCN1CCCC1 | -1% | -0.7% | -10 | -0.3 | -4 | -2% | 9%
CSc1cccc(CN2CCC(CCC(=O)NC3CC3)CC2)c1 | -25% | -3.0% | 4 | 0.3 | -52 | 7% | 9%
CCOC(=O)C1CCN(c2nc(-c3ccc(C)cc3)nc3ccccc23)CC1 | 0%[15.4 µM] | · | 1 | 0.6 | -7 | -12% | -5%
Nn1c(SCc2cc([N+](=O)[O-])cc3c2OCOC3)nnc1-c1ccccn1 | 10%[15.4 µM] | · | · | 0.6 | 0 | 7% | -12%

A different layout for some results above.
Below each compound – gsp agonist	ClpP mod	TRPV1 PAM	Menin MLL FP FL	D2 PAM	Sfp PPTase inh	gsp antagonist
> O=C(NC(=S)Nc1ccc(Cl)c(C(=O)O)c1)c1cncc(Br)c1
→ 10%	-1.2%	9	2.3	-17	-14%	10%
> COc1ccc(CNC(=O)CCNS(=O)(=O)c2ccc(Cl)cc2)cc1
→ -12%	·	12	1.4	-3	1%	6%

Continuation.
molecule | gsp agonist | ClpP mod | TRPV1 PAM | Menin MLL FP FL | D2 PAM | Sfp PPTase inh | gsp antagonist
COc1cccc(-c2c(NC(=O)c3ccco3)n(-c3ccc(C)cc3)nc(C)c2=O)c1 | -5% | -0.4% | 15 | -1.1 | 24 | 10% | 7%
CCOC(=O)C(NC(=O)CC)(Nc1ccc(S(=O)(=O)Nc2onc(C)c2C)cc1)C(F)(F)F (stereo unspecified) | -20% | 0.2% | 2 | -1.6 | 1 | 10% | -2%
O=C(NNS(=O)(=O)c1ccccc1)c1ccncc1 | -24% | 0.1% | -6 | 5.4 | 12 | -8% | 2%
CCOc1cc(C(=O)Nc2ccc3c4c(cccc24)C(=O)N3CC)cc(OCC)c1OCC | 15% | -0.1% | 10 | 0.7 | -9 | -1% | 0%
O=C(COC(=O)c1cncc(Br)c1)NCC12CC3CC(CC(C3)C1)C2 | -5%[15.4 µM] | -3.1% | -6 | · | -1 | · | 7%
O=C(NCCCN1CCCC1=O)c1cccc(S(=O)(=O)Nc2ccccc2Cl)c1 | 10% | 1.3% | 0 | · | -5 | · | -18%
NC(=O)Cc1ccc(C(=O)c2ccc(Cl)cc2)s1 | ? | · | 1 | 0.1 | -8 | -7% | -8%
CCCCN(C)CCCNC(=O)c1cn(CC)c2ccc(S(=O)(=O)N3CCOCC3)cc2c1=O | 19% | -6.9% | 2 | 0.6 | -18 | 2% | 12%
Cc1ccc(NC(=O)CN(C)Cc2nc3ccccc3c(=O)[nH]2)c(Br)c1 | -13% | -2.7% | 2 | 5.4 | -6 | -6% | -8%
